Screens as filed in PubChem BioAssay.
Shh pathway inh – blocks Sonic Hedgehog signaling | Shh-LIGHT2 Gli-luciferase reporter, 30 h | actives 2.1% (n = 22,000) | inhibition, % (no concentration beside the values);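 active = replicate mean of 65% or more; inconclusive = mean lower but half the replicates past it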;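 note: pathway switched on by Shh-conditioned medium diluted 1 in 25 in low serum; 100 nL library stock added to about 40 µL; 0% = median of neutral wells and 100% = positive control level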
YB-1 expr inh – YB-1 expression inhibition; U2OS, qRT-PCR YB-1 vs CDIP delta delta Cp, 16 h; stronger effect = higher value; zero = DMSO, each unit about twofold; delta delta Cp (YB-1 minus CDIP) (concentration not given with the values); actives 0.37% (n = 30,000); AID 434959;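 active = delta delta Cp rounded down to an integer at or above 3, about 3 SD of DMSO wells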;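 note: higher means less YB-1 transcript or more CDIP transcript relative to DMSO; stock transfer was 100 nL into about 100 µL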
MITF inh – MITF inhibition; actives 0.28% (n = 37,000); TRPM1 promoter luciferase, luminescence, 24 h; AID 2240; inhibition, % (concentration not given with the values);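 active = most replicates at 85% or more, or half of them and the mean; inconclusive = half reach 85% but not the mean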;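 note: human melanocyte line stably carrying TRPM1 promoter luciferase reporter; 0% = vehicle wells and 100% = a positive control; the first replicate is given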
PD-1 reversal – activators reversing PD-1 mediated T-cell inhibition; primary human CD4 T cells, PD-L1 beads, CellTiter-Glo 96 h; 29,000 tested, under 10 active; activation, % (no concentration beside the values);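 active = replicate mean of 50% or more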;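 note: 0% = median vehicle wells and 100% = positive control; 100 nL library stock added to about 50 µL; numbers are from one replicate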
Active calls of the source: *; ? = inconclusive; nt = no result given; & = joins results of further samples. An excerpt, so the mix of outcomes need not match the whole.

SMILES,Shh pathway inh,YB-1 expr inh,MITF inh,PD-1 reversal
COc1ccc(S(=O)(=O)Nc2cccc3c2O[C@@H](CN(C)Cc2ccc(C(=O)O)cc2)[C@@H](C)CN([C@H](C)CO)C3=O)cc1,-10,0.19,-4,1.1
C[C@H]1CN([C@@H](C)CO)C(=O)c2cc(NC(=O)C3CC3)ccc2O[C@H]1CN(C)Cc1ccc(-c2ccccc2)cc1,nt,0.34,8,2.8
C[C@@H]1CN([C@H](C)CO)C(=O)Cc2cc(NC(=O)Nc3ccccc3)ccc2O[C@@H]1CN(C)S(=O)(=O)c1cn(C)cn1,-59,0.15,3,nt
C[C@@H]1CN([C@H](C)CO)C(=O)Cc2cc(NC(=O)Cc3ccccc3)ccc2O[C@H]1CN(C)Cc1ccccc1,27,0.17,1,1.6
CC(=O)Nc1ccc(N=Cc2cccc3ccccc23)cc1,29,0.44,-15,-0.7
CC(C)NC(=O)Nc1ccc2c(c1)C(=O)N([C@H](C)CO)C[C@H](C)[C@H](CN(C)S(=O)(=O)c1cccs1)O2,nt,0.079,-6,nt
Cc1ccc(S(=O)(=O)Nc2ccc3c(c2)C(=O)N([C@H](C)CO)C[C@H](C)[C@H](CN(C)C(=O)Nc2ccc(F)cc2)O3)cc1,nt,-0.17,-19,-2.4
O=C(CC1c2ccccc2Oc2ccccc21)Nc1ccc(Cc2ccncc2)cc1,nt,nt,60,-4.2
C[C@@H]1CN([C@@H](C)CO)C(=O)c2cc(NS(=O)(=O)c3cn(C)cn3)ccc2O[C@@H]1CN(C)C(=O)Nc1ccc(C(F)(F)F)cc1,nt,0.047,-1,1.2
Cn1nc(CC(=O)Nc2nc(-c3ccccc3)cs2)c2ccccc2c1=O,nt,0.046,14,-0.1
C[C@@H]1CCCCO[C@@H](CN(C)S(=O)(=O)c2ccc(Cl)cc2)[C@@H](C)CN([C@H](C)CO)C(=O)c2cc(NC(=O)NC3CCCCC3)ccc2O1,?,0.21,8,-3.9
O=C(Nc1ccc(S(=O)(=O)Nc2ncccn2)cc1)c1ccc(-c2ccccc2)cc1,nt,nt,4,-0.6
C[C@@H]1CN([C@H](C)CO)C(=O)c2cccc(NC(=O)c3ccc(-c4nccs4)cc3)c2O[C@H]1CN(C)C(=O)Nc1ccccc1,-18,-0.13,-1,-0.9
COc1ccc(NC(=O)N(C)C[C@H]2Oc3c(NS(=O)(=O)c4cccs4)cccc3C(=O)N([C@@H](C)CO)C[C@H]2C)cc1,-17,-0.71,4,-2.7
COC(=O)C1=COC(O[C@@H]2O[C@H](CO)[C@@H](OC(=O)/C=C/c3ccc(O)cc3)[C@H](O)[C@H]2O)[C@H]2[C@@H]1[C@H](O)C[C@]2(C)OC(C)=O (some centres not stated),4,0.19,nt,nt
C[C@@H]1CN([C@@H](C)CO)C(=O)c2cc(NC(=O)CCCN(C)C)ccc2O[C@@H]1CN(C)C(=O)Nc1ccc2c(c1)OCO2,-4,-0.29,-13,nt
C[C@H](CO)N1C[C@H](C)[C@@H](CN(C)Cc2ccc(-c3ccccc3)cc2)Oc2ccc(NS(=O)(=O)c3ccc(Cl)cc3)cc2C1=O,27,0.048,2,-1.0
Cc1cc(C)c(C#N)c(SCc2cc(=O)[nH][nH]2)n1,-13,-0.39,-6,-2.8
Cc1noc(C)c1NC(=O)N(C)C[C@H]1Oc2ccc(NC(=O)Cn3cnnn3)cc2C(=O)N([C@H](C)CO)C[C@@H]1C,-17,-0.17,-6,nt
O=C1C(Nc2ccccc2)=CC(=O)c2ncccc21,94*,3.1*,97*,-61
C[C@H]1CN([C@@H](C)CO)C(=O)Cc2cc(NC(=O)CCN3CCOCC3)ccc2O[C@@H]1CN(C)S(=O)(=O)c1ccccc1,-8,-0.18,-7,-0.6
COc1ccc(S(=O)(=O)Nc2ccc3c(c2)CC(=O)N([C@H](C)CO)C[C@H](C)[C@H](CN(C)C(=O)Nc2ccc(F)cc2)O3)cc1,nt,-0.061,-6,nt
O=C(Nc1ccccc1)C(=S)Nc1ccccc1,-192,-0.22,17,-0.1
COc1cccc(NC(=O)CSc2nnc(-c3ccc(Cl)cc3)n2-c2cccc(C)c2)c1,nt,nt,?,-14
CCOc1cc(CO)c(Br)cc1OCC(=O)O,nt,nt,-11,0.8
CC(=O)OC1/C=C(/C(=O)O)CC/C=C(/C)C(=O)/C=C\C1(C)C (configuration not stated),65*,0.044,-11,-7.8
O=C(Nc1ccccc1)c1ccc(S(=O)(=O)c2cccc(S(=O)(=O)N3CCOCC3)c2)cc1,nt,nt,19,3.0
CC1=CC(=O)OC1(O)CCC(C)CC(=O)O (configuration not stated),-1,0.24,nt,nt
COC(=O)c1ccccc1NC(=O)CSc1nc(-c2cccs2)cc(C(F)(F)F)c1C#N,nt,nt,28,-1.1
Cc1ccccc1Cn1c(NCc2ccco2)nc2c1c(=O)n(C)c(=O)n2C,nt,nt,3,-4.2
CCOC(=O)c1c(NC(=O)c2ccc(Cl)c(S(=O)(=O)N3CCOCC3)c2)sc2c1CCCC2,nt,nt,-9,1.8
C[C@@H]1CCCCO[C@@H](CN(C)Cc2ccc(C(F)(F)F)cc2)[C@@H](C)CN([C@H](C)CO)C(=O)c2cc(NC(=O)CCC(F)(F)F)ccc2O1,nt,0.14,-4,0.2
C[C@H]1CN([C@@H](C)CO)C(=O)c2cc(N(C)C)ccc2O[C@@H]1CN(C)Cc1ccccc1,-9,0.36,-14,1.8
C[C@@H]1CN([C@H](C)CO)C(=O)c2cc(NS(=O)(=O)c3cccs3)ccc2O[C@H]1CN(C)Cc1ccc(C(F)(F)F)cc1,nt,0.47,-6,-1.7
COc1ccc(OC)c(NC(=O)NCc2cnn(C)c2)c1,nt,nt,-22,1.7
CC(C)NC(=O)Nc1ccc2c(c1)CC(=O)N([C@@H](C)CO)C[C@H](C)[C@@H](CN(C)Cc1ccccc1)O2,-16,-0.15,-29,1.2
COc1ccccc1NC(=O)CSC1=NCCS1,nt,nt,-10,0.8
C[C@@H]1CN([C@H](C)CO)C(=O)c2cccc(NS(=O)(=O)c3ccc(Cl)cc3)c2O[C@H]1CN(C)Cc1ccncc1,-19,0.0059,-5,1.1
Cc1noc(C)c1S(=O)(=O)Nc1cccc2c1O[C@H](CN(C)S(=O)(=O)c1ccc(Cl)cc1)[C@H](C)CN([C@H](C)CO)C2=O,-7,-0.048,3,nt
CCc1nc2n[nH]c(N)c2c2c1COC(C)(C)C2,-34,0.29,-11,-1.4
OCCCNc1ncnc2scc(-c3ccccc3)c12,nt,nt,59,-0.8
C[C@@H]1CN([C@@H](C)CO)C(=O)c2cc(NC(=O)Nc3ccc(F)cc3)ccc2O[C@H]1CN(C)Cc1ccc(C(F)(F)F)cc1,nt,0.43,37,-3.3
Cc1ccc(NC(=O)CSc2n[nH]c(-c3ccncc3)n2)cc1C,nt,nt,-4,-1.8
O=C(OC[C@]12O[C@H]1[C@@H](O)[C@@H]1C=CO[C@@H](O[C@@H]3O[C@H](CO)[C@@H](O)[C@H](O)[C@H]3O)[C@@H]12)c1ccccc1,25,-0.38,-22,0.1
CC(=O)N[C@@H](CC(C)C)C(=O)O,-18,0.39,3,0.5
COc1ccc(N(C(=O)c2cccnc2)S(=O)(=O)c2ccccc2)cc1,nt,nt,-2,1.1
COc1ccc(CN(C)C[C@H]2Oc3ccc(NS(=O)(=O)c4ccc(OC)cc4)cc3CC(=O)N([C@@H](C)CO)C[C@@H]2C)cc1,17,0.25,9,-1.0
COc1cc(OC)c(NC(=O)CCN2C(=O)c3ccccc3C2=O)cc1Cl,nt,nt,-21,2.3
O=C(CSc1nnc(-c2ccncc2)o1)Nc1ccccc1F,nt,nt,-16,1.7
Cc1ccc(C(=O)c2ccc(CC(=O)O)n2C)cc1,-32&12,-0.55&-0.48,-19&-7,0.3
CCCCn1c2ccccc2c2nnc(SCC(=O)c3ccccc3)nc21,nt,nt,-14,-3.2
C[C@@H]1CN([C@H](C)CO)C(=O)Cc2cc(NS(=O)(=O)c3ccc(Cl)cc3)ccc2O[C@@H]1CN(C)C,-11,0.031,-2,0.6
CSCC(NS(=O)(=O)c1ccc(Br)cc1)C(=O)O (configuration not stated),nt,nt,-1,1.9
Cc1nc2c([nH]1)C1(CCC(c3ccccc3)CC1)C(C#N)=C(N)O2 (configuration not stated),-18,0.057,3,-1.5
NCCNC(=O)c1ccc(Cl)cc1,-40,-0.26,11,nt
Cc1c(C)c(C)c(S(=O)(=O)N2CCCC2)c(C)c1C,49,0.093,-4,-1.8

Next structures:
SMILES,Shh pathway inh,YB-1 expr inh,MITF inh,PD-1 reversal
COc1ccc(S(=O)(=O)Nc2cccc3c2O[C@@H](CN(C)CC2CCCCC2)[C@H](C)CN([C@@H](C)CO)C3=O)cc1,-67,-0.035,2,1.1
COc1ccc([N+](=O)[O-])cc1NC(=O)C(C)N(c1ccc(C)cc1)S(C)(=O)=O (configuration not stated),nt,nt,34,0.1
Cc1noc(C)c1S(=O)(=O)Nc1ccc2c(c1)CC(=O)N([C@H](C)CO)C[C@H](C)[C@H](CN(C)Cc1ccc(-c3ccccc3)cc1)O2,nt,-0.24,31,nt
N#CCCSCc1ccc2oc(C(=O)O)cc2c1,nt,nt,-8,2.9
Nc1cc(=O)nc(SCC(=O)N(c2ccccc2)c2ccccc2)n1-c1ccccc1,nt,nt,2,1.1
COc1ccc(CCNC(=O)c2cc3cc(F)ccc3nc2C)cc1OC,nt,nt,43,1.5
Cc1ccc(S(=O)(=O)Nc2cccc3c2O[C@H](CN(C)CC2CC2)[C@H](C)CN([C@H](C)CO)C3=O)cc1,-12,0.049,7,3.0
C[C@H](CO)N1C[C@H](C)[C@@H](CN(C)Cc2ccc(C(F)(F)F)cc2)Oc2ccc(NC(=O)CCCCCC(=O)Nc3ccccc3N)cc2C1=O,nt,0.13,1,0.6
C[C@H]1CN([C@@H](C)CO)C(=O)Cc2cc(NC(=O)Nc3ccc(C(F)(F)F)cc3)ccc2O[C@@H]1CN(C)C,17,-0.41,-4,1.8
C[C@@H]1CCCCO[C@@H](CN(C)S(=O)(=O)c2ccc(F)cc2)[C@@H](C)CN([C@H](C)CO)C(=O)c2cc(NC(=O)NC3CCCCC3)ccc2O1,14,0.44,29,nt
C[C@H](CO)N1C[C@H](C)[C@H](CN(C)S(=O)(=O)c2ccccc2)Oc2c(NC(=O)Nc3ccc4c(c3)OCO4)cccc2C1=O,6,-0.22,-10,1.1
CC(C)c1ccc(NC(=O)Cn2cc([N+](=O)[O-])cn2)cc1,nt,nt,-21,-1.4
C[C@@H]1CCCCO[C@@H](CN(C)C(=O)c2ccccc2)[C@@H](C)CN([C@H](C)CO)C(=O)c2cc(NS(=O)(=O)c3cccs3)ccc2O1,-18,0.22,3,1.4
COc1ccc(NC(=O)c2ccc(N(C)S(=O)(=O)c3ccc(OC)c(OC)c3)cc2)cc1OC,nt,nt,-1,-0.3
Cc1cccc(NC(=O)CC2Nc3cccc4cccc(c34)NC2=O)c1 (configuration not stated),nt,nt,58,-9.4
CC(C)NC(=O)N(C)C[C@H]1Oc2c(NC(=O)C3CC3)cccc2C(=O)N([C@H](C)CO)C[C@@H]1C,1,0.54,-2,nt

Molecules above that have a furan ring, fused or not (2):
SMILES,Shh pathway inh,YB-1 expr inh,MITF inh,PD-1 reversal
Cc1ccccc1Cn1c(NCc2ccco2)nc2c1c(=O)n(C)c(=O)n2C,nt,nt,3,-4.2
N#CCCSCc1ccc2oc(C(=O)O)cc2c1,nt,nt,-8,2.9

The listing continues.
SMILES,Shh pathway inh,YB-1 expr inh,MITF inh,PD-1 reversal
COc1ccc(NC(=O)Nc2cccc3c2O[C@H](CN(C)Cc2ccc(C(=O)O)cc2)[C@@H](C)CN([C@H](C)CO)C3=O)cc1,-11,-0.38,-8,nt
C[C@H](CO)N1C[C@H](C)[C@H](CN(C)S(=O)(=O)c2cccs2)Oc2c(NC(=O)c3nc4ccccc4s3)cccc2C1=O,20,-0.28,-27,-1.0
Cc1ccc(C(=O)NC(=O)CSc2nnc(C)s2)cc1,nt,nt,-11,0.1
COc1ccc(N2CCc3c(C)c(C#N)c4nc5ccccc5n4c32)cc1,6,-0.069,22,-1.0
